TRPML1 agonist: qHTS for Agonists of the Human Mucolipin Transient Receptor Potential 1 (TRPML1). activation, % (no concentration beside the values). Mucolipin-1 (Homo sapiens), Q9GZU1. TRPML1-expressing cells, Ca2+ dye fluorescence, FDSS; host cell line not named in the record; reference of the full effect not given here. hit rate 0.12% among 410,000. AID 624414, 2012; in the data active = activation above about 50%; inconclusive = about 30% to 50%; inactive = below about 30%; also: 0% is about no effect; the text of the record puts the active cut at 80%
Target sequence (Q9GZU1 whole entry, looked up): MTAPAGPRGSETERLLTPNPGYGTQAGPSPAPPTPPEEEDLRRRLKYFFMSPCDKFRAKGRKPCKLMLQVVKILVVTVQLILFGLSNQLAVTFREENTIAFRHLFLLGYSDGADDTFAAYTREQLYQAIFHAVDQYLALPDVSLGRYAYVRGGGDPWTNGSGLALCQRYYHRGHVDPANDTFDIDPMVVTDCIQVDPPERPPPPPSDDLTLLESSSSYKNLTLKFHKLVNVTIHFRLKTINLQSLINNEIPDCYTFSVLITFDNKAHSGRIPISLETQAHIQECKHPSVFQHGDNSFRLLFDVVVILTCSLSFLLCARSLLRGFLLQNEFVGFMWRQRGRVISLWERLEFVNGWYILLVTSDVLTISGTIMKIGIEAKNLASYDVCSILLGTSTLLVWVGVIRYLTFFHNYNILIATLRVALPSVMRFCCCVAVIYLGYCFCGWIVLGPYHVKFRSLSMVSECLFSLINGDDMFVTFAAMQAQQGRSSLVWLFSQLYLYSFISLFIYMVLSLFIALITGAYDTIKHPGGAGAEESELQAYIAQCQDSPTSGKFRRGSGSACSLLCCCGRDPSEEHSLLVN
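In this qHTS format, compounds were pin-transferred onto Ca8-dye-loaded TRPML1-DL cells induced with Tet overnight, and intracellular Ca2+ fluorescence was recorded kinetically for 110 s after a 10 s baseline. A subsequent 4uM final 54-4 (EC80) addition followed by a second 110 s read served as the antagonist phase.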
CtBP-E1A blk: qHTS Assay for Inhibitors of the CtBP/E1A Interaction | CtBP / adenovirus E1A interaction (AlphaScreen) | activity change, % (no concentration beside the values) | AlphaScreen GST-E1A/His-CtBP binding, 1536-well; hits give low values; control for the full effect not named in the record | hit rate 0.49% among 340,000 | AID 651724, 2012; in the data active means activity change below about -65%; inconclusive means about -30% to -65%; inactive means above about -30%; also: % is scaled to controls: 0 for no effect and ±100 for the full control effect; compound concentration not given in the record
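AlphaScreen with 125 nM GST-E1A and 125 nM His-CtBP (5X stocks) in Tris pH 8.0, 300 mM NaCl, BSA, Tween 20, TCEP. Compounds preincubated 2 h at 37 deg C, then glutathione donor/nickel acceptor beads added for 1 h at 37 deg C in dark.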
D2 PAM: Beta-Arrestin HTS for Positive Allosteric Modulators of the Human D2 Dopamine Receptor: Potentiators; potentiation, % (test concentration not listed); DiscoveRx D2 beta-arrestin cells, luminescence, 90 min; 100% = 57 uM dopamine signal; hit rate 0.23% among 360,000; D(2) dopamine receptor (Homo sapiens), P14416; active = potentiation of 50% or more; inconclusive = 30% to 50%; inactive = 30% or less;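 also: compound concentration not given in the record; tested on top of an EC20 dose of dopamine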
Target sequence (P14416 whole entry, looked up): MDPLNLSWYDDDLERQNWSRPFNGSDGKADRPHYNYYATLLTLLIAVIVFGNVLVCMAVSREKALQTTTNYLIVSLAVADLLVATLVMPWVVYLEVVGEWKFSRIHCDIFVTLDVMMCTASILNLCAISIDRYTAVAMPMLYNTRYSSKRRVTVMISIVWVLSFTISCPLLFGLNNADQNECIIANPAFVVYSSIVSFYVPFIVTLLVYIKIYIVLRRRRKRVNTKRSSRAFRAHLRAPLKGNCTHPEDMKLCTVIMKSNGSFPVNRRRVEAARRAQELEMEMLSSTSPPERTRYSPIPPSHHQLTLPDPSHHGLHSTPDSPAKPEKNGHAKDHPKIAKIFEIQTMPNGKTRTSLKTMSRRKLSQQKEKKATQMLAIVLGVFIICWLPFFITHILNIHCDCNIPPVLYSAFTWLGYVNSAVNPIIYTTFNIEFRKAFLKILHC
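D2 cells co-treated with compound plus 50 nM dopamine (EC20) for 90 min at 37 deg C to detect potentiation. Beta-arrestin recruitment was read as enzyme-fragment luminescence after 1 h at ambient temperature. Full response was set by 57 uM dopamine.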
D2 ag: Beta-Arrestin HTS for Positive Allosteric Modulators of the Human D2 Dopamine Receptor: Agonists | D(2) dopamine receptor (Homo sapiens), P14416 | DiscoveRx PathHunter D2 beta-arrestin, luminescence, 90 min; 100% = 57 uM dopamine signal | activation, % (concentration not given with the values) | hit rate 0.084% among 360,000 | AID 624465, 2012; in the data active = activation above about 40%; inconclusive = about 15% to 40%; inactive = below about 15%; also: compound concentration not given in the record; the text of the record calls up to 30% inactive
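Agonist mode: compounds alone added to overnight-plated D2 PathHunter cells for 90 min at 37 C, with 57 uM final dopamine (EC100) defining full response. Beta-arrestin recruitment detected by chemiluminescent reagent, read after 1 h at ambient temperature.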
PINK1 modulator: A Quantitative High throughput Screen to Identify Chemical Modulators of PINK1 Expression. PINK1 immunofluorescence, high-content cytometry, 24 h. hit rate 0.2% among 410,000. Potency, µM (top dose mostly 76.6 µM), for inactives: at the top dose activation (PINK1 increase), actives largely listed as activators; active = well fitted activation curve with a large enough effect; inconclusive = small, poorly fitted or top-dose-only effect; inactive = flat fitted curve, though single readings scatter; cell line not stated here;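 also: potency is read from the fitted curve at half-maximal effect; % of control where 0% means no effect; nearly all actives have a fitted effect of over 65% in size; a mitochondrial uncoupler was the plate control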
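Decision-based qHTS: stable cells, 24 h exposure to five compound concentrations, CCCP as control. Fixed cells stained for PINK1 plus nuclear, mitochondrial and cell markers, cytometer read.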
Six1-Eya2 inh: qHTS Assay for Inhibitors of the Six1/Eya2 Interaction; Homeobox protein SIX1 (Homo sapiens) + Protein phosphatase EYA2 (Homo sapiens), …; AlphaScreen GST-Six1/His-Eya2 binding, biochemical; hits give low values; control for the full effect not named in the record; activity change, % (test concentration not listed); hit rate 0.56% among 360,000; AID 651725, 2012; in the data active = activity change below about -65%; inconclusive = about -30% to -65%; inactive = above about -30%; also: % is scaled to controls: 0 for no effect and ±100 for the full control effect; compound concentration not given in the record
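AlphaScreen luminescence read after one hour at 37 °C in darkness. Pin-transferred compounds met GST-Six1 and His-Eya2 protein (5X stock 250 nM/500 nM) plus glutathione donor and Ni-chelate acceptor beads (5X, 50 ug/mL).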
Starred values were filed as active, the others as inactive; ? = inconclusive; / = no result given; [ ] = remark or other dose.

SMILES | TRPML1 agonist | CtBP-E1A blk | D2 PAM | D2 ag | PINK1 modulator | Six1-Eya2 inh
Cc1ccc(OC(=O)CCC(=O)OCCCC(F)(F)C(F)(F)F)cc1 | 0.8 | 35 | 0 | -1.2 | -2.5%[38.3 µM] | 37
CC1CN(C(=O)c2ccccc2NS(=O)(=O)c2cccc([N+](=O)[O-])c2)CC(C)O1 (stereo not drawn) | 1.4 | 15 | -9 | -3.1 | 0.8% | -1
CCN1C(=O)N[C@@H](c2cccs2)C(C(C)=O)=C1C | -0.8 | 0 | -3 | 0.9 | 1.0% | 2
CCn1c(SCC(=O)Nc2nc(C)cs2)nnc1C(NC(=O)c1ccccc1Cl)C(C)C (stereo not drawn) | 1.2 | 3 | 1 | -2.9 | 1.0% | 6
CCOC(=O)[C@@H]1[C@H]2COc3ccccc3[C@@H]2N2C(=O)N(c3ccc(Br)cc3)C(=O)[C@@]12C | -0.2 | 2 | -5 | -5.6 | 0.9% | 6
Cc1cc(C)cc(N/C(N)=N/c2nc(C)cc(C)n2)c1 | 2.9 | -4 | -14 | -2.9 | 22% | 5
CCOc1ccc(OCC)c(NC(=O)CN(c2ccc(OC)cc2)S(=O)(=O)c2c(C)noc2C)c1 | 2.7 | -14 | -8 | -4.6 | 3.4% | -13
N#CCCN(C(=O)COC(=O)CNC(=O)C12CC3CC(CC(C3)C1)C2)c1ccccc1 | 0.3 | 5 | 6 | 0.1 | 1.2% | 0
Cc1nc2nc(SCC(=O)NCCCN3CCCCCC3)nn2c(C)c1Cc1ccccc1 | -0.5 | -5 | -11 | -3.9 | -1.3% | 6
Cn1cnc(S(=O)(=O)NCc2cccs2)c1 | -0.3 | 1 | -3 | 0.3 | -0.6% | 10
O=C(O)C1C2C=CC(C2)C1C(=O)NCc1ccc(Cl)cc1Cl (stereo not drawn) | 0.2 | -6 | -2 | -0.1 | -0.8% | -2
FC(F)(F)c1ccc(Oc2ccc(Cl)cc2Br)nc1 | 0.2 | 15 | -4 | 1.8 | 0.6% | 22
Cn1cc(CN2CCCCC2c2ccccn2)c(-c2ccc3c(c2)OCCO3)n1 (stereo not drawn) | -0.4 | 0 | -9 | 1.7 | -2.2% | -11
CCO[C@@H]1OC(C(=O)NCc2ccccc2)=C[C@H](C2CC2)[C@H]1CCCO | -1.0 | -1 | -12 | -1.0 | -0.4% | 1
Cn1c(=O)n(C)c2cc(NC(=O)COc3ccccc3)ccc21 | -0.5 | / | -16 | -3.1 | -0.1% | 2
O=C(NCc1cc(Cl)cc(Cl)c1)c1csc(COCCO)n1 | -0.6 | 1 | -7 | -5.6 | 0.0% | 1
CC1=CS/C(=C(/C#N)C(=O)NCc2ccco2)N1c1ccccc1 | 1.3 | 2 | -7 | -4.7 | -0.1% | -7
O=C1CC(c2ccco2)CC(O)=C1C=Nc1cc(Cl)ccc1Cl (stereo not drawn) | -0.4 | -5 | -18 | -1.8 | 6.5% | -11
NNc1nc(-c2ccccc2Cl)nc2sc3c(c12)CCCC3 | -0.2 | 15 | 53* | ? | 11% | -9
O=C(c1cccc(N2C(=O)C3C4C=CC(C4)C3C2=O)c1)N1CCN(c2ccc(F)cc2)CC1 (stereo not drawn) | -0.7 | 1 | -10 | 4.9 | 0.1% | -2
O=C(Nc1nccs1)c1cccc(S(=O)(=O)N2CCCCC2)c1 | 1.0 | -4 | -18 | -1.7 | 22%[38.3 µM] | -14
O=C(NCCN1CCOCC1)c1ccc(Cl)cc1[N+](=O)[O-] | 0.5 | 0 | -5 | -0.9 | -0.2%[38.3 µM] | 2
Cc1cnc(C2OCCO2)c2cccc([N+](=O)[O-])c12 | -0.5 | -13 | -7 | -4.7 | -0.3% | -3
CCCc1cc(=O)oc2cc(OCC(=O)NCC(O)c3ccccc3)ccc12 (stereo not drawn) | 3.0 | / | -6 | -0.4 | 24% | 1
CCCNS(=O)(=O)c1cc(Br)cc2c1N(C(=O)CC)CC2 | 0.4 | -6 | -29 | -3.4 | -0.1% | -2
(cont.)
SMILES | TRPML1 agonist | CtBP-E1A blk | D2 PAM | D2 ag | PINK1 modulator | Six1-Eya2 inh
Cc1ccc[n+](CC(=O)Nc2cc(C(F)(F)F)ccc2N2CCOCC2)c1 | 0.1 | 5 | -1 | -7.8 | -1.0% | 7
Cc1cccc(CC(=O)NCC(=O)NCc2cc(=O)n(C)c(=O)n2C)c1 | 0.0 | 0 | -3 | -4.6 | 1.3% | 3
COc1ccc(-c2noc(-c3ccccc3C(=O)Nc3cccc(OC)c3)n2)cc1 | 2.5 | -4 | -8 | -4.4 | 4.2% | -10
O=C(CN1C(=O)c2ccccc2S1(=O)=O)c1ccc(Cl)cc1Cl | -0.5 | 10 | -8 | -0.5 | 1.2% | -14
CC(C)Cn1c(N)c(C(=O)COC(=O)CN2C(=O)C3CC=CCC3C2=O)c(=O)n(C)c1=O (stereo not drawn) | -0.7 | -8 | -1 | -1.1 | 1.0% | -1
Cc1cccc(C)c1N1C(=O)[C@@H]2C(c3ccccc3Cl)=NO[C@@H]2C1=O | 0.5 | -6 | -5 | 4.9 | -2.0% | 6
COc1ccc(CCNC(=O)CSc2ccsc2[N+](=O)[O-])c(OC)c1 | -0.6 | 12 | -3 | -1.4 | 6.2% | -7
CCOc1cc2c(cc1OCC)C(c1ccc(C(=O)O)cc1)NCC2 (stereo not drawn) | 0.1 | 5 | 8 | -1.3 | 2.6% | 12
CCOC(=O)c1c(C)[nH]c(C)c1C(=O)CSc1nc(N)cc(N)n1 | 1.4 | -2 | -6 | -0.5 | -0.9% | -2
CCOC(=O)C1=CN(Cc2ccc(Br)cc2)S(=O)(=O)N(C)C1C (stereo not drawn) | 1.1 | 33 | -2 | 1.1 | 2.9% | 10
CCOc1ccc(CCNC(=O)C2CC(=O)N(CCc3ccccc3)C2)cc1OCC (stereo not drawn) | -1.3 | 2 | -6 | -1.9 | 1.0% | 5
COCC(C)n1c(C)cc(C(=O)COc2ccc(N(C)S(=O)(=O)c3ccc(NC(C)=O)cc3)cc2)c1C (stereo not drawn) | 1.4 | 0 | -20 | -0.5 | 0.6% | -7
CCOc1ccc(C(=O)NCC(=O)NCC2CCCCC2)cc1OCC | 0.4 | -3 | -1 | -2.9 | -0.7% | -6
CCc1ccc(-c2nc(CCl)cs2)cc1 | -0.8 | 4 | -8 | -2.6 | 1.1% | 13
COc1ccc(-c2cc3nc(NCCCN(C)C)n(C)c(=O)c3s2)c(C)c1 | -0.5 | 0 | -7 | -7.2 | 1.7% | 12
COC(=O)c1c(-c2ccc(S(C)(=O)=O)cc2)sc2ccc(OC)cc12 | 2.9 | 0 | -9 | -5.3 | -0.3% | -1
CCOC(=O)C(Cc1c(F)cccc1F)(NC(C)=O)C(=O)OCC | -0.6 | 2 | -5 | -1.6 | 6.7%[38.3 µM] | -1
CC1CN(C(C)C)C(=S)N(c2ccccc2)C1=O (stereo not drawn) | -0.7 | 5 | -1 | -0.5 | 0.4% | 9
COc1ccc(/C=C(\C#N)C(=O)NCC2CCCO2)cc1OC (stereo not drawn) | -0.6 | -27 | -17 | -0.6 | -0.7% | 0
COc1ccc(S(=O)(=O)N2CCCC(C(=O)N3CCCC3)C2)cc1OC (stereo not drawn) | 0.7 | -1 | -6 | -4.5 | 1.3% | 2
CCOc1ccc(-c2[nH]ncc2-c2ccc(OC)c(OC)c2)c(O)c1 | 0.6 | -9 | 8 | -1.2 | 1.9%[38.3 µM] | -6
CC1(C(=O)NS(=O)(=O)c2cccc(Cl)c2)CCN1C(=O)C1(c2ccccc2)CC1 (stereo not drawn) | -0.5 | 1 | -2 | 3.0 | 0.7% | -5
CCC1S/C(=N/N=C/c2cccs2)NC1=O (stereo not drawn) | 0.2 | -8 | -4 | -1.1 | -0.3% | -12
Cc1cc(OCC(=O)NNC(=O)c2cccs2)ccc1Br | -0.3 | 6 | -2 | 0.1 | -1.6% | 8
Nn1c(SCc2cn3cc(Cl)ccc3n2)nnc1-c1ccncc1 | -0.1 | 0 | -5 | 1.3 | 2.8% | -2

Pulled by structure from the entries so far:
SMILES | TRPML1 agonist | CtBP-E1A blk | D2 PAM | D2 ag | PINK1 modulator | Six1-Eya2 inh
CCc1ccc(-c2nc(CCl)cs2)cc1 | -0.8 | 4 | -8 | -2.6 | 1.1% | 13
Cc1cccc(C)c1N1C(=O)[C@@H]2C(c3ccccc3Cl)=NO[C@@H]2C1=O | 0.5 | -6 | -5 | 4.9 | -2.0% | 6
CCOC(=O)C1=CN(Cc2ccc(Br)cc2)S(=O)(=O)N(C)C1C (stereo not drawn) | 1.1 | 33 | -2 | 1.1 | 2.9% | 10

(continued)
SMILES | TRPML1 agonist | CtBP-E1A blk | D2 PAM | D2 ag | PINK1 modulator | Six1-Eya2 inh
Cc1ccc(NC(=O)C(=O)NCc2ccncc2)cc1 | -0.2 | 4 | -3 | 0.2 | 0.3% | 6
Cc1ccc(CNC(=O)C2CCN(c3nnc(N4CCCC4=O)s3)CC2)cc1 | -0.2 | -3 | -5 | -2.0 | -0.3% | 8
CCSc1nnc2ccc(-c3ccc(C)cc3)nn12 | 2.8 | / | -14 | -1.9 | -0.3% | 0
CC(C)(C)NC(=O)CCSc1nnc(-c2ccco2)o1 | -0.7 | 1 | 1 | -1.4 | 1.1% | 3
CCn1nnc(NC(=O)c2ccc([N+](=O)[O-])o2)n1 | 0.1 | -9 | 14 | 4.1 | 0.9% | 6
Cn1c(SCc2ccccc2)nnc1C1CCCNC1 (stereo not drawn) | 0.5 | 1 | 22 | -2.1 | -0.6% | -8
CCS(=O)(=O)c1ccc(O)c(NC(=O)Nc2ccccc2OC)c1 | -0.5 | 5 | -2 | 3.4 | 4.4% | 2
CC(SCc1ccccc1)C(=O)Nc1ccccc1 (stereo not drawn) | 0.1 | 13 | 1 | 1.0 | 1.3% | -2

A draw from above in order of formula weight, lowest first.
SMILES | TRPML1 agonist | CtBP-E1A blk | D2 PAM | D2 ag | PINK1 modulator | Six1-Eya2 inh
Cc1ccc(NC(=O)C(=O)NCc2ccncc2)cc1 | -0.2 | 4 | -3 | 0.2 | 0.3% | 6
CC(SCc1ccccc1)C(=O)Nc1ccccc1 (stereo not drawn) | 0.1 | 13 | 1 | 1.0 | 1.3% | -2
Cn1c(SCc2ccccc2)nnc1C1CCCNC1 (stereo not drawn) | 0.5 | 1 | 22 | -2.1 | -0.6% | -8

High-throughput results (PubChem BioAssay)
